# E coli growth – E. coli growth inhibition, primary screen, OD600; AID 1053175, 2014; OD600 absorbance (concentration not given with the values); 330,000 tested, 0.21% active; Escherichia coli growth, 23 h; hits give low values;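 active = OD600 absorbance below the run mean of sample wells minus 3.6 SD, in any replicate, cut at about 0.56 in these data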;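 also: stock transfer was 300 nL into about 60 µL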
# HNF4A DNA FP – change in binding of human HNF4A to DNA, primary screen, biochemical, fluorescence polarization, FITC-DNA; AID 1224865, 2016; 360,000 tested, 0.3% active; Hepatocyte nuclear factor 4-alpha (Homo sapiens), P41235; activity change, % at 10 µM; 1 h; in the data active = activity change above about 30%, passing the limit was not always enough;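 also: controls were the assay level and a saturating level of protein; the project sought stronger binding though the title names inhibitors; some compounds called inactive have numbers as strong as hits; positive values seem to mean higher polarization but the record does not say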
# Target sequence (P41235 whole entry, looked up): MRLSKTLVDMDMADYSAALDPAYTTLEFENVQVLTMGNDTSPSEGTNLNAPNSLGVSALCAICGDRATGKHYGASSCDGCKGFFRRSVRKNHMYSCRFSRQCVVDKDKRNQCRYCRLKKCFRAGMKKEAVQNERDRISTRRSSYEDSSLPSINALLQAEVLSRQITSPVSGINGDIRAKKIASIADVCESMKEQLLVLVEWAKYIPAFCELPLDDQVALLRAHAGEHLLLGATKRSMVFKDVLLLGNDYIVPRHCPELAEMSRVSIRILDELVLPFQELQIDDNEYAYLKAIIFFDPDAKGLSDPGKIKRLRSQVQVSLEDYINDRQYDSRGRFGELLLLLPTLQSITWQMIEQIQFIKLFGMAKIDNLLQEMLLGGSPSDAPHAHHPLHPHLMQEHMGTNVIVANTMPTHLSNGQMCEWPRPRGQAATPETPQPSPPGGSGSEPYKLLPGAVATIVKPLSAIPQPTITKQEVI
# Vif A3G – inhibitors of Vif binding to APOBEC3G peptide, primary screen, biochemical, TR-FRET, GST-Vif 1-94, biotin-A3G peptide, dose response retest (AID 1117319); TR-FRET GST-Vif / biotin-A3G peptide binding; higher % means a stronger effect; test concentration not given here; strong numbers were not always called active; 260,000 tested, 0.57% active; inhibition, %; hits with a dose series show IC50 in µM;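 active = above the screen mean plus three standard deviations and confirmed in dose response; inconclusive = results disagree or hit not tested in dose response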;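 also: Vif residues 1-94 fused to GST binding biotinylated APOBEC3G peptide 110-148; 0% = full assay without inhibitor and 100% = GST in place of GST-Vif; retest series ran down from 100 µM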
# RanGTP-Impb inh – inhibitors of RanGTP-importin-beta interaction, primary screen, biochemical, FRET, CFP-Ran, YFP-importin-beta, homogeneous. 300,000 tested, 1.1% active. cell-free CFP-Ran/YFP-importin-beta FRET ratio. inhibition, % (test concentration not listed). AID 2216, 2009;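 active = most replicates above 15%; inconclusive = exactly half above 15%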;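 also: 0% = DMSO wells and 100% = Ran loaded with GDP instead of GTP; wells of about 40 µL received 100 nL stock; the first replicate is given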
# AF4-AF9 inh – inhibitors of AF4 peptide binding to AF9, primary screen, biochemical, AlphaScreen, biotin-AF4 peptide, FLAG-AF9, single point | Protein AF-9 (Homo sapiens), P42568 | inhibition, % at 10 µM | 350,000 tested, 0.47% active | AID 651704, 2012;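 active = every replicate reaching a set inhibition limit, whatever the replicate mean, cut at about 25% in these data; inconclusive = mean inhibition reaches that limit but some replicates miss it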;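 also: 0% = plate neutral control median and 100% = total signal loss; the record names both 10 and 1 µM as test concentration; the first replicate is given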
# UCH37 inh – inhibitors of human UCH37 deubiquitinase, primary screen, biochemical, Ub-AMC cleavage, fluorescence. Ubiquitin carboxyl-terminal hydrolase isozyme L5 (Homo sapiens), Q9Y5K5. purified proteasome/UCH37. inhibition, % (concentration not given with the values). 330,000 tested, 0.33% active;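 active = mean of two replicates above 20%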;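 also: 0% = compound-free wells with enzyme and 100% = wells lacking proteasome; stock transfer was 100 nL into about 20 µL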
# Target sequence (Q9Y5K5 whole entry, looked up): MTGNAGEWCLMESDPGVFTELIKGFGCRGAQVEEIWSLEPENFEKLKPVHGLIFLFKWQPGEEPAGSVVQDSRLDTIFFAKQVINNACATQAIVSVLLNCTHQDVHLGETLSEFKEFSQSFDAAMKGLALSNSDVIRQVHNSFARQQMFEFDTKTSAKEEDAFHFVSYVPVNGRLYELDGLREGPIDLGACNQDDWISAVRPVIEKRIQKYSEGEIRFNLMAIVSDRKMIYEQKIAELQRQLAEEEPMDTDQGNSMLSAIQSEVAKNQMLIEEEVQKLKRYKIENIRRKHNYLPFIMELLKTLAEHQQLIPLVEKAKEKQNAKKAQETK
#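 Material: human UCH37 enzyme supplied as purified proteasome complex. Measure: % inhibition of Ub-AMC cleavage fluorescence. Medium: pH 7.4 Tris-HCl (50 mM) with ovalbumin, ATP-MgCl2, DTT. Times: 30 min preincubation with enzyme, 25 min cleavage at room temperature. Detection: AMC fluorescence intensity at 355/460 nm.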
# FGF22 binding – binders of human FGF22 protein, primary screen, FGF22 synaptogenesis inhibitor project, biophysical, thermal shift, single point. Fibroblast growth factor 22 (Homo sapiens), Q9HCT0. recombinant FGF22 thermal shift, SYPRO orange fluorescence; percent of sucrose octasulfate shift, DMSO zero. calls only at 9.99 µM. 340,000 tested, 1.5% active. AID 651658, 2012;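 active = melting point raised past a set limit in the mean and every replicate; inconclusive = no clear call; three in four hits are not shown here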
# Target sequence (Q9HCT0 whole entry, looked up): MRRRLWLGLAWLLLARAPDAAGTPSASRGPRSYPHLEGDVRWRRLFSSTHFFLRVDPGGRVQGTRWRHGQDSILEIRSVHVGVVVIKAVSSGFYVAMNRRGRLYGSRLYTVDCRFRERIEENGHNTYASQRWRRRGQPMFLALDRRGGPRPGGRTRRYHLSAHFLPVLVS
# Numbers without * were called inactive; i = inactive; ? = inconclusive; . = not tested or not shown; & = joins results of further samples.
SMILES,E coli growth,HNF4A DNA FP,Vif A3G,RanGTP-Impb inh,AF4-AF9 inh,UCH37 inh,FGF22 binding
O=C(COc1ccc2c(c1)oc(=O)c1ccccc12)N[C@@H](Cc1c[nH]c2ccccc12)C(=O)O,0.721,0.3,.,0.3,-1.2,-21.3,i
C#CCNc1ccc([N+](=O)[O-])cc1,0.724,-0.5,-2.1%,0.6,-3.0,6.3,i
O=C(NCc1ccc2c(c1)OCO2)c1cc(F)c(F)cc1Cl,0.625,-3.3,-5.6%,3.6,1.1,1.4,i
COc1ccc(COc2ccc3c(C)cc(=O)oc3c2)cc1,0.688,1.2,6.6%,-2.5,-10.9,-5.4,i
O=C(CCCOc1ccc(Br)cc1)NNC(=O)c1ccncc1,0.663,-1.4,-6.1%,0.4,-2.5,-1.1,i
CC(C)(Oc1cccc2ccccc12)C(=O)O,0.688,-1.1,13.4%,-3.8,.,0.7,.
CCN(CC(=O)Nc1ccccc1C(F)(F)F)C(=O)Cc1ccc2c(c1)CCC2,0.706,1.5,.,.,-12.3,0.6,i
Cc1cc(Br)c(OCC(=O)NN)c2c1CCC2,0.603,-2.2,-7.8%,1.1,0.1,-0.6,i
C/C(=N\OC(=O)NC(C)C)c1sc(-c2ccccc2)nc1C,.,0.5,2.1%,1.2,.,.,.
Cc1cc(C)c(NS(=O)(=O)c2ccc(Cl)c(C(=O)O)c2)c(C)c1,0.679,-1.2,1.7%,3.8,4.3,1.0,i
CCN(CC)CCN(C(=O)c1ccc(C(C)=O)cc1)c1nc2ccc(Cl)cc2s1,0.631,1.1,3.2%,0.0,13.3,5.1,i
O=C(C[n+]1ccc(/C=N/O)cc1)NC(=O)Nc1ccccc1,.,0.2,-8.6%,.,2.4,.,i
Cc1[nH]c2ccccc2c1C(=O)CNc1nccs1,0.727,-4.4,0.0%,1.2,.,5.7,.
COc1ccc(CCNC(=O)c2ccc(N(C)S(=O)(=O)c3ccc(C)cc3)cc2)cc1,0.741,-3.1,-0.7%,.,-2.7,6.0,i
CCCOc1ccc(-c2csc(N)n2)cc1[N+](=O)[O-],0.668,-0.4,6.6%,-1.3,0.7,5.9,i

# Part of the list above in order of molar mass, highest first:
SMILES,E coli growth,HNF4A DNA FP,Vif A3G,RanGTP-Impb inh,AF4-AF9 inh,UCH37 inh,FGF22 binding
O=C(COc1ccc2c(c1)oc(=O)c1ccccc12)N[C@@H](Cc1c[nH]c2ccccc12)C(=O)O,0.721,0.3,.,0.3,-1.2,-21.3,i
COc1ccc(COc2ccc3c(C)cc(=O)oc3c2)cc1,0.688,1.2,6.6%,-2.5,-10.9,-5.4,i
CCCOc1ccc(-c2csc(N)n2)cc1[N+](=O)[O-],0.668,-0.4,6.6%,-1.3,0.7,5.9,i
CC(C)(Oc1cccc2ccccc12)C(=O)O,0.688,-1.1,13.4%,-3.8,.,0.7,.

# Continuation.
SMILES,E coli growth,HNF4A DNA FP,Vif A3G,RanGTP-Impb inh,AF4-AF9 inh,UCH37 inh,FGF22 binding
Cc1nc2ccccc2n1CC(=O)OCC(=O)NCCc1ccccc1,0.804,2.1,-0.3%,4.1,.,3.9,.
CC(=O)N1c2ccc(S(=O)(=O)NCCC(=O)Nc3ccc(OC(F)(F)F)cc3)cc2CC1C (stereo not given),0.644,1.8,5.9%,2.1,-0.5,-1.0,i
CCOC(=O)C(CCc1nnc(N)s1)C(=O)OCC,0.696,0.8,5.4%,1.8,-31.7,1.0,i
CC1(C)Cc2c(c(=S)nc(-c3ccccc3)n2CCO)CO1,0.742,4.3,-0.7%,1.2,.,11.7,.
O=C(NCc1nnc(SCC(=O)N2CCCc3ccccc32)o1)c1c(F)cccc1Cl,0.663,2.9,1.0%,0.3,-1.8,1.4,i
COC(=O)c1ccc(CNC(=O)C2CCC(=O)N(Cc3ccccn3)C2)cc1 (stereo not given),0.62,1.4,.,-1.9,1.7,1.3,i
O=C(CNC(=O)Cc1ccccc1)NCC(=O)OCC(=O)c1cccc2ccccc12,0.671,8.3,3.2%,-2.4,.,4.7,.
Nc1ccccc1OCCOc1ccccc1N,0.633,-0.2,5.8%,-0.8,1.0,-3.6,i
COc1cccc(-c2ccc(NC(=O)C3CCCN(Cc4cnc(C)s4)C3)cc2)c1 (stereo not given),0.611,4.2,.,-2.9,2.5,3.0,i
Cc1ccc(Cc2c(C3CCCCC3)nc3c(C)cc(Br)cn23)cc1,.,3.5,.,.,4.7,.,i
CC(NC(=O)c1cn(C(C)c2ccccc2F)nn1)c1ccncc1 (stereo not given),0.67,1.7,-5.3%,4.0,-1.0,0.3,i
CC(=O)c1cccc(NC(=O)c2cc(-n3cnnc3)ccc2Cl)c1,0.795,3.0,-5.6%,-1.7,.,-0.9,.
COc1ccccc1S(=O)(=O)Cc1ccc(C(=O)NCc2ccccc2)o1,0.69,0.0,3.1%,0.2,-6.7,-1.4,i
C=CCOC(=O)COc1ccc2c(C)c(C)c(=O)oc2c1,0.746,-1.2,-2.1%,?,.,-66.1,.
Cc1cc(C)n2c(Nc3c(C)cccc3C)c(CCc3ccccc3)nc2n1,.,13.5,.,.,5.6,.,i
O=C(c1ccccc1NS(=O)(=O)c1ccc2c(c1)OCCO2)N1CCOCC1,0.678,1.9,6.1%,3.3,-5.7,3.1,i
Cc1ccc2nc(SCC(=O)Nc3cccc(Cl)c3)nc(=O)n2c1,0.667,3.2,-40.1%,-1.4,-10.9,0.3,i
COc1ccc2nc(N/C(=N/S(=O)(=O)c3cccs3)c3ccccc3Cl)sc2c1,0.663,0.8,4.7%,4.0,-0.9,-0.2,i
COC(=O)[C@]12CCCCC=C1N(Cc1ccco1)C(=O)[C@H](CC(=O)NCC1CCCCC1)C2,.,0.5,.,.,0.8,.,i
Cc1c(NC(=O)COc2ncnc3c(Cl)cc(Cl)cc23)c(=O)n(-c2ccccc2)n1C,0.689,0.6,?,0.4,.,-0.1,.
Cc1ccc(NCc2nnc(SCC(=O)NCc3ccco3)n2CC2CCCO2)cc1Cl (stereo not given),0.691,-1.7,8.9%,-1.0,.,-1.6,.
C#CCOCCOCCOCCNc1nc(N2CCN(C(=O)[C@H]([C@@H](C)O)n3cc(CCCCN)nn3)CC2)nc(N2CCN(C(=O)[C@H](Cc3ccc(O)cc3)n3cc(CCO)nn3)CC2)n1,.,2.5,?,2.2,2.3,-1.6,i
COc1ccccc1C(=O)Nc1onc(C)c1C#N,0.676,-1.6,3.2%,2.9,-3.7,0.8,i
CCC(CC)C(=O)NCCc1ccc(F)cc1,0.714,2.2,-5.7%,3.8,.,3.1,.
Cc1ccc(C2(CCNCc3ccco3)CCOC(C(C)C)C2)cc1 (stereo not given),0.684,2.0,30.1%,3.0,-13.5,0.2,i
COc1ccc(Cl)cc1NC(=O)CCc1nnc2ccc(N3CCC4(CC3)OCCO4)nn12,0.644,0.2,6.2%,0.4,1.7,-4.3,i
O=C1CCCN1CC(=O)N1CCCC(N2CCN(c3cccc(Cl)c3)CC2)C1 (stereo not given),0.714,-0.2,3.9%,0.1,-6.9,0.3,i
COc1ccc(C(=O)N/C(=C\c2cn(C)c3ccccc23)C(=O)NCCN2CCOCC2)cc1OC,0.713,1.8,.,1.1,-16.4,12.0,i
O=[N+]([O-])c1cccc2c(Cl)ccnc12,0.658,-7.0,26.9%,-1.0,3.6,5.1,i
CCC(C)NC(=O)c1cn(-c2cccc(C)n2)cn1 (stereo not given),0.74,-0.4,-1.0%,3.6,.,-0.6,.
CCOC(=O)N1CCN(C(=O)c2ccc(CS(=O)Cc3ccc(C)cc3)o2)CC1 (stereo not given),0.692,2.8,.,-1.0,-2.1,2.4,i
CC1(C)C(=O)OC(C(=O)c2ccc(C(C)(C)C)cc2)C(C)(C)C1=O (stereo not given),0.732,-3.5,4.9%,-3.9,.,-1.0,.
O=C(Nc1ccc(Cl)cc1)c1cnc(-c2ccccc2)nc1-c1ccccc1,0.634,6.7,-4.5%,-0.5,.,0.8,.
COCCCNC(=S)N1CCN(C(c2ccccc2)c2ccccc2)CC1,0.708,-3.8,.,2.0,0.2,5.1,i
Cc1nn(C(=O)c2ccco2)c(C)c1Br,0.701,-2.3,3.4%,-0.5,.,-2.5,.
CCCc1ccc(C(=O)[C@@H]2[C@@H](C(C)=O)N3c4ccc(F)cc4C=C[C@@H]3[C@@]23C(=O)Nc2ccccc23)cc1,0.691,-4.2,13.8%,0.3,13.6,0.3,i
COc1ccc(CNC(=O)C[C@H]2C[C@H](C(=O)N(C(C)C)C(C)C)[C@@]3(C)c4[nH]c5cc(CCC(=O)N(C)C)ccc5c4CCN3C2=O)cc1OC,0.716,-0.2,-0.4%,.,0.0,4.1,i
CCN1CCN(c2nc(Nc3ccc(OC)cc3)nc(N)c2[N+](=O)[O-])CC1,0.675,1.4,-3.9%,1.1,7.6,11.5,i
O=C(COc1ccccc1)Nc1cc(S(=O)(=O)N2CCOCC2)ccc1N1CCCC1,0.727,2.3,.,.,-30.2,-1.8,i
CC(C)NC(=O)COc1ccc(/C=N/NS(=O)(=O)c2ccccc2)cc1,.,1.0,9.5%,1.0,.,.,.
CCC(=O)NC(c1ccc(C)cc1)c1ccc2cccnc2c1O (stereo not given),.,-4.7,-0.1%,0.9,-0.3,.,i
CCN(c1ccccc1)S(=O)(=O)c1ccc(NC(=S)NC(=O)c2ccc(Br)o2)cc1,.,3.9,23.8%,2.9,.,0.0,.
Cc1ccc2nccc(C(=O)N3CCCC(N4CCN(c5ccc(F)cc5)CC4)C3)c2c1 (stereo not given),0.681,0.8,.,-2.2,3.4,0.8,i
O=C(CCCn1c(=O)c2cccn2c2cccnc21)N1CCN(c2ccccc2F)CC1,0.674,1.4,-7.4%,0.2,-24.0,-0.3,i
CC(C)(C)NC(=O)C(=O)NCc1ccccn1,0.672,2.9,-2.3%,0.5,1.0,3.7,i
CCOC(=O)c1ccc(NC(=O)CSc2nnc(COc3ccccc3)n2C)cc1,0.754,-1.5,-6.0%&-7.9%,3.1,.,3.6,.
COc1ccccc1NC(=S)NCc1ccccn1,0.704,-1.0,.,3.0,5.2,6.8,i
CCOc1ccccc1CN1CCC(Oc2ccc(C(=O)NCc3ccccn3)cc2)CC1,0.719,-1.8,.,-0.9,2.9,1.6,i
CC(Sc1nc2c(N)ncnc2n1CCOc1ccccc1)C(=O)O (stereo not given),0.659,-3.4,-4.2%,2.7,-1.3,1.4,i
CC(=O)c1c(C)[nH]c(C(=O)NCCC2=CCCCC2)c1C,0.667,10.6,-2.8%,3.9,.,-0.9,.
NCC12CC3CC(C1)CC(c1ccc(Cl)cc1)(C3)C2,0.505*,1.0,4.0%,-0.2,9.4,4.7,i
CCCCN1C(=O)C(C#N)CC2=C1CC(C)(C)CC2=O (stereo not given),0.671,0.8,-2.0%,.,-0.8,3.9,i
CCN(C(=O)CSc1nc2scc(-c3ccccc3)c2c(=O)n1N)C1CCS(=O)(=O)C1 (stereo not given),0.689,2.5,.,.,-7.5,1.1,i
COc1cccc(-n2c(SCC(=O)c3c[nH]c4ccccc34)nc3ccccc3c2=O)c1,.,-0.4,-13.2%,3.7,-1.2,.,i
C=CCC(C=C)S(=O)(=O)c1ccc(C)cc1 (stereo not given),0.648,-5.0,4.3%,-1.9,.,1.4,.

# Some of the compounds tested, so the mix of outcomes need not match the whole.
